Vaccinia stage: blocks a specific stage of Vaccinia orthopoxvirus infection. Vaccinia-infected cells, mCherry/Venus stage reporter fluorescence; stronger effect = lower value; some inactives read as strong as hits. activity change (mCherry), % (concentration not given with the values). actives 0.01% (n = 89,000);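 active = mCherry past -33% and 40 or more points under the early reporter, replicates agreeing; inconclusive = past -33% without that gap or agreement; tested in A549 cells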;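 note: scaled between vehicle wells and reference inhibitor wells; 23 nL library stock went into each well; one replicate is shown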
Vaccinia stage Venus: also measured in Vaccinia stage; calls as there; activity change (Venus), %; measured here: Venus reporter, other viral stage;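 negative = less Venus signal; first of two replicates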
* = called active by the depositor; ? = inconclusive; / = not tested or not shown. A portion of the library, so the mix of outcomes need not match the whole.

| compound | Vaccinia stage | Vaccinia stage Venus |
| --- | --- | --- |
| COc1ccc(NC(=O)N(C)C[C@@H]2Oc3ccc(NC(=O)CCC(F)(F)F)cc3CC(=O)N([C@H](C)CO)C[C@H]2C)cc1 | 14 | 8 |
| C[C@@H]1CN([C@H](C)CO)C(=O)c2cc(NC(=O)Nc3cccc4ccccc34)ccc2O[C@@H]1CN(C)S(=O)(=O)c1ccc(Cl)cc1 | -1 | 4 |
| C[C@@H]1CN([C@@H](C)CO)C(=O)c2cc(NC(=O)Cc3cn(C)c4ccccc34)ccc2O[C@H]1CN(C)C(=O)Nc1cccc2ccccc12 | 4 | 0 |
| CC(=O)N1[C@H](CO)[C@H](c2ccccc2)C12CN(S(=O)(=O)c1ccccc1)C2 | 7 | 6 |
| CO[C@H]1CN(C)C(=O)c2cc(NC(=O)C3CC3)ccc2OC[C@H](C)N(C(=O)C2CCOCC2)C[C@@H]1C | 4 | -2 |
| C[C@H]1CN([C@@H](C)CO)C(=O)c2cc(NC(=O)CCCN(C)C)ccc2O[C@H]1CN(C)C | 26 | 11 |
| O=C(Nc1ccc2c(c1)OCO2)N1[C@@H]2CNC[C@H]1C2c1ccc(/C=C/c2ccccc2)cc1 (stereo partly specified) | -12 | -8 |
| COc1cc(CN2CC3(CCN(S(=O)(=O)c4cn(C)cn4)CC3)c3c(n(C)c4cc(OC)ccc34)[C@@H]2CO)cc(OC)c1 | 8 | 10 |
| Cc1ccccc1S(=O)(=O)N1CCCCN2[C@H](C1)[C@@H](c1ccc(C#CCN(C)C)cc1)[C@@H]2CO | -35 | -32 |
| C[C@H](CO)N1C[C@H](C)[C@@H](CN(C)S(=O)(=O)c2cccs2)OCCCC[C@H](C)Oc2ccc(NS(=O)(=O)c3ccc(Cl)cc3)cc2C1=O | ? | / |
| Cc1cccc(-c2ccc([C@@H]3[C@@H](CO)N4CCCCN(S(=O)(=O)c5cn(C)cn5)C[C@@H]34)cc2)c1 | -20 | -28 |
| C[C@@H]1CN([C@H](C)CO)C(=O)c2cc(NC(=O)C3CCCCC3)ccc2O[C@@H]1CN(C)S(=O)(=O)c1ccccc1 | -17 | -6 |
| C[C@H](O)C#Cc1cnc2c(c1)C(=O)N([C@H](C)CO)C[C@H](C)[C@H](CN(C)Cc1ccccn1)O2 | 28 | 11 |
| COc1ccccc1NC(=O)N1[C@@H](C#N)[C@H](c2ccccc2)[C@@H]1CO | 6 | -7 |
| COc1ccc(NC(=O)N(C)C[C@H]2Oc3c(NC(=O)Nc4ccccc4)cccc3C(=O)N([C@@H](C)CO)C[C@@H]2C)cc1 | 2 | -2 |
| COc1ccc(-c2ccc3c(c2)[C@@H]2[C@@H](CCN2S(=O)(=O)c2ccc(F)cc2)[C@H](CO)N3C)cc1 | ? | / |
| CC(C)NC(=O)N1[C@H](CO)[C@H]2c3ccccc3N(C(=O)Nc3ccccc3)C[C@H]21 | -6 | 10 |
| C[C@@H]1CN([C@H](C)CO)C(=O)c2cc(C#CC3(O)CCCC3)cnc2O[C@H]1CN(C)C(=O)C1CCCCC1 | 4 | 3 |
| C[C@H]1CN([C@@H](C)CO)C(=O)Cc2cc(NC(=O)Cc3cn(C)c4ccccc34)ccc2O[C@H]1CN(C)Cc1ccc2c(c1)OCO2 | 4 | 5 |
| N#C[C@@H]1[C@@H](c2ccc(-c3ccc(F)cc3)cc2)[C@@H](CO)N1C(=O)Cc1ccccc1 | -13 | -1 |
| CC(C)NC(=O)N(C)C[C@H]1Oc2c(NC(=O)c3ccncc3)cccc2C(=O)N([C@H](C)CO)C[C@@H]1C | 0 | 1 |
| CCCNC(=O)N1[C@H](C#N)[C@H](c2ccccc2C2=CCCCC2)[C@@H]1CO | 3 | -3 |
| C[C@@H]1CN([C@@H](C)CO)C(=O)c2cc(NC(=O)c3ccncc3)ccc2O[C@@H]1CN(C)S(=O)(=O)c1cn(C)cn1 | 13 | 5 |
| CCCC(=O)N1CCC2(CC1)CN(Cc1ccc(Cl)cc1)[C@@H](CO)c1[nH]c3cc(OC)ccc3c12 | -13 | -4 |
| CCC(=O)N1[C@H](CO)[C@H](c2ccccc2)C12CN(C(=O)Nc1cccc(OC)c1)C2 | 13 | 16 |
| CCCC(=O)Nc1ccc2c(c1)C(=O)N(C)C[C@H](OC)[C@@H](C)CN(C(=O)c1cnccn1)[C@@H](C)CO2 | -10 | 0 |
| C[C@H](CO)N1C[C@H](C)[C@H](CN(C)C(=O)Cc2ccncc2)Oc2cc(C#CC3CC3)ccc2S1(=O)=O | 3 | 3 |
| Cc1noc(C)c1NC(=O)N(C)C[C@@H]1OCCCC[C@H](C)Oc2ccc(NC(=O)NC(C)C)cc2C(=O)N([C@@H](C)CO)C[C@H]1C | -2 | -2 |
| CCC(=O)N(C)C[C@@H]1Oc2ncc(C#Cc3ccccc3OC)cc2C(=O)N([C@@H](C)CO)C[C@H]1C | 4 | -11 |
| CCCNC(=O)N(C)C[C@H]1Oc2ncc(-c3ccc(C(=O)N(C)C)cc3)cc2C(=O)N([C@H](C)CO)C[C@H]1C | 7 | 7 |
| COc1cccc(NC(=O)N2C[C@@H](O)COC[C@H]3O[C@@H](CC(=O)NC4CCCC4)CC[C@@H]32)c1 | 10 | 2 |
| COc1ccc(S(=O)(=O)N(C)C[C@H]2OCCCC[C@H](C)Oc3ccc(NS(=O)(=O)c4c(C)noc4C)cc3C(=O)N([C@@H](C)CO)C[C@@H]2C)cc1 | ? | / |
| CN(C)CC#Cc1ccc([C@@H]2[C@@H](CO)N3CCCCN(S(=O)(=O)c4ccccc4F)C[C@H]23)cc1 | -30 | -36 |
| CC(=O)N(C)C[C@@H]1OCc2ccccc2-c2ccccc2C(=O)N([C@@H](C)CO)C[C@H]1C | 18 | 11 |
| C[C@@H]1CN([C@@H](C)CO)C(=O)c2cc(NC(=O)C3CCCCC3)ccc2O[C@H]1CN(C)S(=O)(=O)c1cn(C)cn1 | 7 | 11 |
| C/C=C/c1ccc2c(c1)O[C@@H](CN(C)C(=O)Nc1ccc(F)cc1)[C@@H](C)CN([C@H](C)CO)S2(=O)=O | -18 | -14 |
| C[C@@H]1CCCCO[C@H](CN(C)C(=O)Nc2ccc3c(c2)OCO3)[C@H](C)CN([C@@H](C)CO)C(=O)c2cc(N(C)C)ccc2O1 | -12 | -4 |
| O=C(C[C@H]1CC[C@H]2[C@@H](COC[C@H](O)CN2CC2CCCCC2)O1)NCc1ccc(F)cc1 | -4 | 8 |
| COc1ccccc1C#Cc1cnc2c(c1)C(=O)N([C@@H](C)CO)C[C@H](C)[C@@H](CN(C)C(=O)CN(C)C)O2 | -6 | 1 |
| N#Cc1cccc(-c2ccc([C@H]3[C@@H](CO)N4CCCCN(C(=O)Nc5cccc(F)c5)C[C@@H]34)cc2)c1 | -19 | -17 |
| C[C@@H]1CCCCO[C@@H](CN(C)C(=O)C2CCCCC2)[C@H](C)CN([C@@H](C)CO)C(=O)c2cc(NC(=O)C3CCCCC3)ccc2O1 | -21 | -17 |
| C[C@H](CO)N1C[C@H](C)[C@@H](CN(C)C(=O)c2ccccc2)OCCCC[C@H](C)Oc2ccc(NS(=O)(=O)c3ccc(Cl)cc3)cc2C1=O | -34 | -35 |
| C[C@H](CO)N1C[C@H](C)[C@@H](CN(C)C(=O)Nc2ccccc2)OCc2cn(nn2)CCCC1=O | ? | / |
| CO[C@@H]1CN(C)C(=O)c2cc(NC(=O)C3CC3)ccc2OC[C@H](C)N(C(=O)c2ccccc2F)C[C@@H]1C | 7 | 4 |
| COc1ccc(S(=O)(=O)N(C)C[C@@H]2Oc3cc(C#CC4CCCC4)ccc3S(=O)(=O)N([C@H](C)CO)C[C@H]2C)cc1 | ? | / |
| CO[C@@H]1CN(C)C(=O)c2cc(NC(=O)c3cc(C)on3)ccc2OC[C@@H](C)N(S(=O)(=O)c2ccc(F)cc2)C[C@H]1C | -2 | 5 |
| Cc1ccc(-c2ccc3c(c2)O[C@H](CN(C)C(=O)CC2CC2)[C@@H](C)CN([C@@H](C)CO)S3(=O)=O)cc1 | -10 | -15 |
| CCC(=O)N1C[C@@H](C)[C@H](OC)CN(C)C(=O)c2ccc(NS(C)(=O)=O)cc2OC[C@H]1C | -1 | -5 |
| C[C@H](CO)N1C[C@H](C)[C@H](CN(C)Cc2ccccc2)Oc2ccc(NS(=O)(=O)c3ccc(Cl)cc3)cc2CC1=O | -23 | -20 |
| COc1ccc2c3c(n(C)c2c1)[C@H](CO)N(C(C)=O)CC31CCN(C(=O)c2ccccc2)CC1 | 12 | 5 |

4 of the compounds above, with two lines to a compound.
The line under a structure holds: Vaccinia stage	Vaccinia stage Venus
CC(C)NC(=O)N1[C@H](CO)[C@H]2c3ccccc3N(C(=O)Nc3ccccc3)C[C@H]21
  -6	10
C[C@@H]1CN([C@H](C)CO)C(=O)c2cc(C#CC3(O)CCCC3)cnc2O[C@H]1CN(C)C(=O)C1CCCCC1
  4	3
C[C@H]1CN([C@@H](C)CO)C(=O)Cc2cc(NC(=O)Cc3cn(C)c4ccccc34)ccc2O[C@H]1CN(C)Cc1ccc2c(c1)OCO2
  4	5
N#C[C@@H]1[C@@H](c2ccc(-c3ccc(F)cc3)cc2)[C@@H](CO)N1C(=O)Cc1ccccc1
  -13	-1

The results go on.
| compound | Vaccinia stage | Vaccinia stage Venus |
| --- | --- | --- |
| COc1ccc(S(=O)(=O)Nc2ccc3c(c2)C(=O)N([C@H](C)CO)C[C@H](C)[C@@H](CN(C)CC2CC2)OCCCC[C@H](C)O3)cc1 | 15 | 13 |
| C[C@H]1CN([C@@H](C)CO)C(=O)Cc2cc(NC(=O)CCCCCC(=O)Nc3ccccc3N)ccc2O[C@@H]1CN(C)Cc1ccc(Cl)c(Cl)c1 | -2 | 4 |
| CCCNC(=O)[C@@H]1[C@@H](CO)[C@@H]2Cn3c(cccc3=O)[C@@H]2N1Cc1ccccn1 | 2 | 4 |
| CO[C@H]1CN(C)C(=O)c2ccc(NC(=O)C3CC3)cc2OC[C@@H](C)N(C(=O)C2CCCCC2)C[C@H]1C | 0 | 15 |
| C[C@H](CO)N1C[C@H](C)[C@@H](CN(C)C)Oc2ccc(NC(=O)Nc3ccc4c(c3)OCO4)cc2C1=O | 10 | 9 |
| COCC(=O)Nc1ccc2c(c1)C(=O)N(C)C[C@H](OC)[C@H](C)CN(Cc1cccc(F)c1)[C@H](C)CO2 | 3 | -2 |
| C[C@@H]1CN([C@@H](C)CO)S(=O)(=O)c2ccc(C3=CCCC3)cc2O[C@@H]1CN(C)C(=O)C1CCCCC1 | -23 | -14 |
| C/C=C/c1cnc2c(c1)C(=O)N([C@H](C)CO)C[C@H](C)[C@@H](CN(C)C(=O)c1cccnc1)O2 | 9 | 5 |
| CCCNC(=O)Nc1ccc2c(c1)OC[C@H](C)N(C(C)=O)C[C@@H](C)[C@@H](OC)CN(C)C2=O | 13 | 12 |
| COc1ccc(NC(=O)Nc2ccc3c(c2)[C@@H]2C[C@H](CC(=O)N4CCc5ccccc5C4)O[C@H](CO)[C@@H]2O3)cc1 | 9 | 4 |
| C[C@H]1CN([C@@H](C)CO)C(=O)c2cc(C#CC3CCCCC3)cnc2O[C@H]1CN(C)CC1CC1 | ? | / |
| COCC(=O)Nc1ccc2c(c1)C(=O)N(C)[C@H]1CC[C@@H](CC(=O)N3CCc4ccccc4C3)O[C@H]1CO2 | -24 | -13 |
| COc1ccc(NC(=O)N2CC(=O)N3[C@H](CO)[C@@H](c4ccc(Br)cc4)[C@@H]3C2)cc1 | -20 | -19 |
| CCCNC(=O)[C@H]1[C@H](CO)[C@H]2Cn3c(ccc(-c4cccnc4)c3=O)[C@H]2N1Cc1cocn1 | 4 | -5 |
| N#Cc1ccc(-c2ccc3c(c2)[C@H]2[C@H](CCN2C(=O)c2ccc4c(c2)OCO4)[C@@H](CO)N3)cc1 | -21 | -8 |
| CN(C)Cc1cn(CC[C@@H]2CC[C@H](NC(=O)Cc3cccnc3)[C@H](CO)O2)nn1 | 9 | 10 |
| C[C@@H]1CN([C@@H](C)CO)C(=O)c2cc(-c3ccccc3)cnc2O[C@H]1CN(C)C(=O)Nc1ccc2c(c1)OCO2 | -7 | -10 |
| C[C@H](CO)N1C[C@H](C)[C@H](CN(C)C(=O)c2ccc(N3CCN(C)CC3)cc2)OCc2cnnn2CCCC1=O | 7 | 3 |
| C[C@@H]1CN([C@@H](C)CO)C(=O)c2cc(NC(=O)Nc3ccc(F)cc3)ccc2O[C@@H]1CN(C)Cc1ccc(Oc2ccccc2)cc1 | ? | / |
| Cc1noc(C)c1NC(=O)Nc1ccc2c(c1)C(=O)N([C@@H](C)CO)C[C@H](C)[C@@H](CN(C)S(=O)(=O)c1c(C)noc1C)OCCCC[C@H](C)O2 | 27 | 15 |
| COCCOC(=O)N1C(=O)[C@@]2(c3ccccc31)[C@H](c1ccccc1OCCO)N1[C@H](c3ccccc3)[C@H](c3ccccc3)OC(=O)[C@H]1[C@@H]2C(=O)N1CCN(c2ncccn2)CC1 | -35 | -13 |
| CCC(=O)N(C)C[C@@H]1Oc2cc(C#Cc3ccccn3)ccc2S(=O)(=O)N([C@H](C)CO)C[C@H]1C | 4 | -1 |
| C[C@H](CO)N1C[C@H](C)[C@H](CN(C)C(=O)Nc2ccc(C(F)(F)F)cc2)Oc2ccc(NC(=O)Nc3ccc(C(F)(F)F)cc3)cc2CC1=O | ? | / |
| C[C@H]1CN([C@@H](C)CO)C(=O)c2cc(NS(C)(=O)=O)ccc2O[C@@H]1CN(C)C(=O)Nc1ccc(F)cc1 | 2 | 11 |
| C[C@@H]1CN([C@@H](C)CO)C(=O)c2cc(NS(C)(=O)=O)ccc2O[C@H]1CN(C)Cc1ccc2c(c1)OCO2 | 11 | 2 |
| CCCNC(=O)N1[C@H](C#N)[C@H](c2ccc(-c3ccc(C(=O)N(C)C)cc3)cc2)[C@@H]1CO | ? | / |
| CN(C)C(=O)c1cccc(-c2ccc([C@H]3[C@H]4CN(CC5CCOCC5)CCCCN4[C@H]3CO)cc2)c1 | 13 | 5 |
| CN1CCN(C(=O)C[C@@H]2CC[C@H]3[C@@H](COc4ccc(NC(=O)C5CCOCC5)cc4C(=O)N3C)O2)CC1 | 3 | 10 |
